# Screening data from PubChem BioAssay.
# Sfp inh = qHTS Assay for Inhibitors of Bacillus subtilis Sfp phosphopantetheinyl transferase (PPTase). Potency, µM, inactives show max response, negative = inhibition, actives largely listed as inhibitors. 3.5% of 310,000 active. 4'-phosphopantetheinyl transferase ffp (Bacillus subtilis), Q9F4F7. Biochemical Sfp PPTase activity, qHTS; active means well fitted inhibition curve with a large enough effect; inconclusive means small, poorly fitted or top-dose-only effect, or another doubt; inactive means no such curve, though single readings can be large or run the other way;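 further: the enzyme is Sfp with the accession as filed and its product quenches rhodamine fluorescence; potency means the concentration at half of the fitted maximal effect; 0% = enzyme reaction without inhibitor and -100% = no enzyme wells; top concentration of the series not given in the record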
#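 Reaction rates are the 30-min fluorescence difference (ex 525, em 598 nm) in wells containing 15 nM Sfp, 5 uM rhodamine-CoA and 12.5 uM BHQ-2-YbbR at pH 7.6 with 10 mM MgCl2.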
# ClpP mod = qHTS Assay for Activators of ClpP; AID 651965, 2013; Potency, µM (series often up to 57.5 µM), for the others: at the top dose activity change, negative = active; purified B. subtilis ClpP, FRET peptide cleavage, 20 min; 1.9% of 340,000 active; ATP-dependent Clp protease proteolytic subunit (Bacillus subtilis (strain 168)), P80244; active = well fitted falling curve with a large enough effect; inconclusive = small, poorly fitted or top-dose-only effect; inactive = no such curve, though single readings can be large or run the other way; further: potency means the concentration at half of the fitted maximal effect; the source files actives as falling curves though it sought activators and does not explain the sign; nearly all actives have a fitted effect of over 65% in size; many hits overshoot -100%
# Target sequence (P80244 whole entry, looked up): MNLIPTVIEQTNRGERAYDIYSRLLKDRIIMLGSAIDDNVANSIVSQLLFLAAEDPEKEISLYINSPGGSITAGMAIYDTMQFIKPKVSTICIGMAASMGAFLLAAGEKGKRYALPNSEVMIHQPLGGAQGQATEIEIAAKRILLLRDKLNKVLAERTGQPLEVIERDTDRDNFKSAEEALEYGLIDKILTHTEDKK
#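 Purified B. subtilis ClpP, 10 microg/mL final in Tris/HCl pH8 with KCl, BSA, glycerol and Tween-20, cleaved an Abz/nitrotyrosine-quenched decapeptide. Fluorescence (ex 320, em 430) was read at 0 and 20 min at room temperature. Delta was normalized to 5.8 microM ADEP and DMSO/no-enzyme controls.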
# CtBP-E1A blk = qHTS Assay for Inhibitors of the CtBP/E1A Interaction; CtBP / adenovirus E1A interaction (AlphaScreen); AlphaScreen GST-E1A/His-CtBP binding, 1536-well; active compounds read low; control for the full effect not named in the record; activity change, % (concentration not given with the values); 0.49% of 340,000 active; AID 651724, 2012; in the data active means activity change below about -65%; inconclusive means about -30% to -65%; inactive means above about -30%; further: on the % scale 0 is the no-effect control and ±100 the full control effect
#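 GST-E1A and His-tagged CtBP (125 nM each as 5X stock) were preincubated with pin-transferred compound for 2 h at 37 °C in the dark, then glutathione donor and nickel acceptor beads were added for 1 h before AlphaScreen reading.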
# gsp antag = qHTS for Antagonists of gsp, the Etiologic Mutation Responsible for Fibrous Dysplasia/McCune-Albright Syndrome: qHTS; gsp-mutant cells, cAMP HTRF, 30 min; control for the full effect not named in the record; Potency, µM (doses to about 76.9 µM), without a hit: at the top dose activity change, negative = inhibition, most hits filed as inhibitors; 0.4% of 340,000 active; active = falling curve of any shape with a large fitted effect; inconclusive = falling curve, mostly with a smaller effect; inactive = flat or rising curve; cell line not stated here;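 further: intracellular cAMP measured with PDE inhibitor Ro 20-1724 present during compound exposure; potency means the concentration at half of the fitted maximal effect; on the % scale 0 is the no-effect control and ±100 the full control effect; nearly all actives have a fitted effect of over 65% in size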
#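 G418-selected cells were plated in DMEM/10% FBS for 16-24 h at 37C, then treated with compounds plus the PDE inhibitor […] (300 uM solution added) for 30 min at 37C. Intracellular cAMP was measured by HTRF after 30 min lysis at room temperature.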
# Menin-MLL FL inh = qHTS Assay for Inhibitors Targeting the Menin-MLL Interaction in MLL Related Leukemias: Competition With Fluorescein Labeled MLL-derived Peptide; FP activity change, % at 61.4 µM; AID 1766, 2009; Fluorescence polarization, fluorescein-MLL peptide displacement from menin; 290,000 tested, under 10 active; inconclusive = falling polarisation curve, or a change in total fluorescence; inactive = total fluorescence flat and polarisation flat or rising; no compound was filed as active; the % refers to the polarisation; negative = inhibition;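 further: % of control where 0% means no effect; inhibitors lower the polarisation; unlabelled MLL peptide was the positive control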
# TRPV1 PAM = HTS Assay for Compounds that Act as Potentiators of the Vanilloid Receptor 1 | Transient receptor potential cation channel subfamily V member 1 (Homo sapiens), Q8NER1 | TRPV1-expressing cells, Fluo-8 calcium influx, capsaicin EC20 potentiation; host cell line not named in the record; control for the full effect not named in the record | potentiation, % at 8.33 µM | 0.02% of 320,000 active; active means potentiation above 80%; inconclusive means 30% to 80%; inactive means below 30%; further: 0% is about no effect
# Target sequence (Q8NER1 whole entry, looked up): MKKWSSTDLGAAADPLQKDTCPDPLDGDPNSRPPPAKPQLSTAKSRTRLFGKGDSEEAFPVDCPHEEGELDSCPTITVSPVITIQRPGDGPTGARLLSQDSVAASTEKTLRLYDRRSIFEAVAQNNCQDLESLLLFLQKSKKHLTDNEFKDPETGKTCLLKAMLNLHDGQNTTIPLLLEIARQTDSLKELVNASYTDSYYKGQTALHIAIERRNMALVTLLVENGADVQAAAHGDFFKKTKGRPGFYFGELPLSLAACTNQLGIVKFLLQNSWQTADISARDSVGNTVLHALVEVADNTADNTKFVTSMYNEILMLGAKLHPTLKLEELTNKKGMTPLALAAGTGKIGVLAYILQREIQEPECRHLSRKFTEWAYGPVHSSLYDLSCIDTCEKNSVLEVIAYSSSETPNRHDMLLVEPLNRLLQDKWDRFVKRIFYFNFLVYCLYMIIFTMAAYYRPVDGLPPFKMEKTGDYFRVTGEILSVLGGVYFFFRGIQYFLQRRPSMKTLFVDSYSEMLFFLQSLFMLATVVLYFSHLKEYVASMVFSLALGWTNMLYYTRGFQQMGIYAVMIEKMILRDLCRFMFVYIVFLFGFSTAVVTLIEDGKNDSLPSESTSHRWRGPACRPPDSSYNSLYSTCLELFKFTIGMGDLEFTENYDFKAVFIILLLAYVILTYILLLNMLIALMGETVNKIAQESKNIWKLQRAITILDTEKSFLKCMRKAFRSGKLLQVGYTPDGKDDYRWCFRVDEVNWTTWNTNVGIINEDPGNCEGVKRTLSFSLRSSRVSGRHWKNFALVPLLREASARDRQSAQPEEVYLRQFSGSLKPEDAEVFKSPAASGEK
#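 Fluo-8 calcium influx in TRPV1-expressing cells, kinetic read (ex 480/em 520 nm). Compound added and read 3 min for agonist activity, followed by capsaicin at EC20 final and 2 min further read for enhancement.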
# gsp agonist = qHTS for Agonist of gsp, the Etiologic Mutation Responsible for Fibrous Dysplasia/McCune-Albright Syndrome: qHTS; gsp mutant cells, cAMP HTRF, 30 min; control for the full effect not named in the record; Potency, µM (doses to about 76.9 µM), for the others: at the highest dose activation (cAMP increase), usual class: activators; 0.13% of 340,000 active; AID 624287, 2012; active = well fitted activation curve with a large enough effect; inconclusive = small, poorly fitted or top-dose-only effect, or another doubt; inactive = no such curve, though single readings can be large or run the other way; cell line not stated here;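 further: phosphodiesterase inhibitor Ro 20-1724 added with compounds to block cAMP breakdown; potency means the concentration at half of the fitted maximal effect; nearly all actives have a fitted effect of over 60% in size; about a fifth of the inactives were tested at one dose only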
#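 Cells stably selected in G418 were plated at 2000/well, grown 16-24 hr, then given compounds in DMSO with the PDE inhibitor […] (300 uM solution added) for 30 min at 37C; cAMP was read by HTRF.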
# Numbers without * were called inactive; ? = inconclusive; · = no result given; & = joins results of further samples; [ ] = dose if it differs, or a comment.
structure	CtBP-E1A blk	gsp agonist	Sfp inh	TRPV1 PAM	gsp antag	Menin-MLL FL inh	ClpP mod
CC(C)OC(=O)Nc1ccc(-c2ccc(NC(=O)OC(C)C)cc2Cl)c(Cl)c1	·	?	19%	4	-2%	-5.0	4.7%
O=C(CSc1ccc2nnc(-c3ccccn3)n2n1)Nc1ccc2c(c1)OCCO2	15	?	25%	-10	15%	-1.1	1.7%
COCCn1c(C)cc(C(=O)CSc2nc3ccccc3o2)c1C	-13	12%	-25%	6	?	2.0	-0.8%
COCCCNC(=O)/C=C/c1ccc(Cl)cc1Cl	8	?	5%	-16	10%	?	0.2%
CCN1C[C@@H]2[C@@H]3C(=O)N(C)C(=O)[C@@H]3[C@](CC)(C(=O)OC)N2C1=NCc1ccccc1	6	·	·	·	15%	·	-1.3%
CN=C1SC(CC(=O)Nc2ccccc2F)C(=O)N1C (stereo not given)	2	-37%[inhibitor]	-24%	0	6%	1.2	0.2%
CC(C)CNc1nc(NC(C)(C)C)nc(Oc2ccc(=O)[nH]n2)n1	-1	?	18%	6	-3%	1.5	·
CCOC(=O)C1CCCN(C(=O)c2cc(COc3ccc(C)nc3)on2)C1 (stereo not given)	-2	-14%[15.4 µM]	-2%	-2	-5%	·	-6.2%
COc1ccc(-n2nc(C(=O)NCC(=O)N3CCC(C(N)=O)CC3)c3ccccc3c2=O)cc1	-17	?	3%	22	11%	-4.0	·
Nn1c(C2CCC2)nc2cc(Cl)ccc2c1=O	0	-3%	16%	0	5%	0.2	-3.2%
CCC(C)NC(=O)CNC(=O)c1nn(-c2ccc(OC)c(Cl)c2)c(=O)c2ccccc12 (stereo not given)	·	6%	18%	5	-9%	-3.4	-2.4%
CCCc1c(C)c2ccccc2[nH]c1=O	2	-21%	8%	0	5%	6.1	-18%
CC(C)NC(=O)c1sc2nc(-c3cccs3)cc(-c3cccs3)c2c1N	1	9%	?	3	-1%	?	-11%
COc1ccc2c(c1)CCCC21NC(=O)NC1=O (stereo not given)	-14	2%	-6%	-5	8%	1.9	3.7%
N#CN=C(c1ccccc1)c1ccccc1	11	-6%	-9%	10	6%	2.2	·
CSc1ncnc2c1ncn2CCCN1CCN(Cc2c(C)cc(C)cc2C)CC1	-10	-8%	·	·	·	·	0.8%
O=C1Nc2ccccc2C(O)(C(=O)NCc2ccco2)N1c1ccc(Cl)c(Cl)c1 (stereo not given)	-6	-26%	-7%	8	-7%[15.4 µM]	6.9	-6.7%
CC(C)c1ccc(CNC(=O)C2CCCN2S(=O)(=O)c2ccccc2)cc1 (stereo not given)	·	4%	7%	-13	-10%	-8.2	0.8%
C/C(=N/O)c1ccccn1	?	·	40µM*	-15	3%	-2.5	0.0%
COc1ccc(-n2cc(C(=O)O)c(=O)cc2C)cc1	4	?	0%	20	8%	0.7	·
CCOc1ccc(CN2C(=O)c3ccccc3C2C(=O)NCc2cccnc2)cc1 (stereo not given)	11	17%	24%	2	5%	2.3	3.3%
Cc1c(Cl)c([N+](=O)[O-])nn1CCCC(=O)Nc1sc2c(c1C(N)=O)CCC(C)C2 (stereo not given)	-6	17%	-2%	-5	8%	0.9	5.9%
COC(=O)C(C)(C(=O)OC)c1ccccc1[N+](=O)[O-]	4	2%	15%	?	3%	1.0	-0.2%
CC(C)(C)OC(=O)C[C@H]1C/C=C\C[C@@H](CC(=O)N[C@H](CO)Cc2ccccc2)C(=O)NCCOC1=O	8	-20%	·	·	13%	·	1.4%
CC(C)C(=O)Nc1cc2c3c(c1)CCN3C(=O)CC2	·	12%	15%	13	-15%	-0.1	0.7%
CCOC(=O)Cc1cn(C(=O)OC(C)(C)C)c2ccccc12	19	·	·	-13	-9%	·	1.5%
Cc1nn(Cc2ccc(Cl)cc2Cl)c(C)c1NC(=O)NC12CC3CC(CC(C3)C1)C2	-4	-1%	15%	16	-18%	0.6	-0.3%
CCn1c(Cc2ccccc2)nnc1SCC(=O)c1cccc([N+](=O)[O-])c1	0	3%	-5%	7	0%	3.6	-11%
O=C(Cc1cccs1)Nc1cccc(-c2nnc(-c3ccco3)o2)c1	-8	4%	3%	89*	?	0.1	·
Cc1ccc(C(C)NC(=O)c2c(C)noc2C)cc1C (stereo not given)	5	25%	7%	-1	-2%	2.6	-1.3%
CC(=O)Oc1ccc(N2C(=O)C3C(C2=O)C(C(=O)c2ccc(Cl)cc2)N2CCCC32)cc1 (stereo not given)	-3	-2%[15.4 µM]	-1%	-1	-2%	-0.6	·
COc1ccc(C(=O)Nn2c(C)ccc2C)cc1OC	0	-53%[inhibitor]	20%	5	1%	6.3	5.7%
COCCn1cnc2c1c(=O)n(CC(=O)NCC(F)(F)F)c(=O)n2Cc1ccccc1	4	1%[15.4 µM]	16%	14	-1%	-0.2	·
CN(C(=O)c1cccc(NC(=O)C2CCN(C(=O)OC(C)(C)C)CC2)c1)C1CCCCC1	0	·	·	·	-21%	·	-0.9%
O=C(CSc1nnc(NC(=O)c2ccccc2)s1)NCc1ccco1	1	-4%	7%	21	0%	·	0.1%
CCOc1ccc(N(CC(=O)NCc2ccccc2)S(=O)(=O)c2c(C)noc2C)cc1	-19	-1%	12%	·	1%	0.8	1.4%
COc1ccc(-c2noc(CCC(=O)Nc3cccnc3)n2)cc1OC	3	?	2%	19	-10%	1.8	-15%
CCCc1cc(NCCCO)n2c(nc3ccccc32)c1C#N	-9	-5%[15.4 µM]	1%	-2	-8%	5.8	·
CC(=O)NC(CCS(C)(=O)=O)C(=O)Nc1c(F)cccc1F (stereo not given)	7	5%	9%	-5	2%	0.2	-1.5%
COC(=O)/C(=C\c1c[nH]c2ccccc12)NC(C)=O	-1	-5%	-17%	10	-9%	-2.2	-1.9%
Oc1ccc(C[C@@H]2CNCCN2CC2(c3ccccc3)CC2)cc1	5	·	·	-13	5%	·	-1.5%
CCn1c(SCC(=O)Nc2ccc3c(c2)n(C)c(=O)n3C)nnc1-c1ccncc1	-1	20%[15.4 µM]	-4%	-5	5%	·	-2.2%
COc1cc2[nH]c(=O)n(CCCC(=O)N3CC=C(c4ccccc4)CC3)c(=O)c2cc1OC	?	-16%	21%	-13	-12%	4.4	?
CCn1nc(C)c([N+](=O)[O-])c1C(=O)NNC(=O)c1ccc(Cl)cc1	-1	-7%[15.4 µM]	11%	·	-2%	-0.9	-9.6%
NC(=O)c1c(NC(=O)CSc2nnc(Cc3ccccc3)n2Cc2ccco2)sc2c1CCC2	1	?	-13%	13	?	2.3	-4.5%
O=C(Cc1ccsc1)Nc1ccc(Cl)cc1Cl	2	-1%	3%	15	9%	·	-1.8%
FC(F)(F)c1ccc(C2[C@H]3CN(Cc4ccc(-c5ccccc5)cc4)[C@H](c4ccccc4)C34CC2(c2cccnc2)C4)cc1 (stereo not given in full)	·	-16%	13%&-1%	-2	2%	-0.5&1.9	0.1%
O=C(c1cc2cc(Cl)ccc2oc1=O)N1CCCC1	-1	-39%[inhibitor]	10%	2	8%	1.3	-13%
Cc1cc(C(=O)COC(=O)C2=NNC(=O)CC2)c(C)n1-c1ccc(OC(F)F)cc1	-1	-98%[inhibitor]	-20%	9	2%	4.5	-11%
COc1cc(NC(=O)C2CC(=O)N(CCc3ccc(F)cc3)C2)cc(OC)c1OC (stereo not given)	-2	1%[15.4 µM]	-1%	5	-4%	0.6	·
COc1cccc(CN2CCN(S(=O)(=O)c3ccccc3)CC2)c1OC	-1	-26%	·	·	14%	·	0.5%
CCOC(=O)c1[nH]cnc1C(=O)Nc1ccccc1C	25	7%[15.4 µM]	7%	17	·	-1.7	·
COc1ccc(-n2cc(CN(C)C3CCOCC3)c(-c3cccc(F)c3)n2)cc1	-1	6%[15.4 µM]	9%	3	-3%	0.5	?
CC(CCc1ccccc1)NC(=O)/C=C/c1ccc(F)cc1 (stereo not given)	·	·	38%[activator]	28	·	-1.5	·
Cc1cccc(OCCOC(=O)CN2C(=O)NC3(CCCC3)C2=O)c1	-2	-16%	·	8	-9%	·	-2.4%
COC(=O)C1=C(CS(=O)(=O)c2ccc(Cl)cc2)NC(=O)NC1c1ccc(O)cc1 (stereo not given)	-18	?	-4%	0	14%	0.3	-3.5%
CN(C)CCCNC(=O)C[C@H]1C[C@H](C(=O)N2CCCCC2)[C@@]2(C)c3[nH]c4ccc(Cl)cc4c3CCN2C1=O	-1	·	·	·	9%	·	-1.0%
COC(=O)CNc1nc(Cl)nc(Nc2ccc(C)cc2)n1	-7	?	13%	13	-1%	-1.1	·
CCOc1cccc2cc(-c3csc(NC(=O)CCC(=O)NCCCN4CCC(C)CC4)n3)c(=O)oc12	·	·	7%	-12	·	-1.8	·
CC(C)(C)C(=O)COC(=O)c1ccc2c(c1)C(=O)N(Cc1ccco1)C2=O	-4	-15%[15.4 µM]	-11%	-5	-1%	-0.3	·
COCN(C#N)c1nc(N(C)C)nc(N(C)C)n1	18	-6%[15.4 µM]	14%	-2	14%	0.5	·
Cc1cc(C(=O)OCC(=O)N2c3ccccc3CC2C)c(C)o1 (stereo not given)	0	-2%	0%	-1	-7%	1.3	-1.6%
Cc1c(-c2ccccc2)nc(-c2ccccc2)[nH]c1=O	6	2%	10%	-2	16%	1.8	10%
